Screens: PubChem BioAssay, ICCB-Longwood Screening Facility, Harvard Medical School
fixLJ activator – B. multivorans fixK reporter activation | z-score (no concentration beside the values) | AID 1918990 | B. multivorans fixK-promoter GFP reporter, 18 h; active compounds read high | hit rate 0.3% among 29,000;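 active = replicate mean overnight rise in green fluorescent reporter signal, 3 or more SD over negative controls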;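 note: score is relative to vehicle wells of the plate; 300 nL library stock went into each well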
* marks the source's active call; other numbers are inactive results. The list is partial, so the mix of outcomes need not match the whole.

SMILES | fixLJ activator
COc1ccc(NC(=O)c2oc3ccccc3c2NC(=O)C23CC4CC(CC(C4)C2)C3)c(OC)c1 | 0.21
CC(C)CCNC(=O)Nc1ccc2c(c1)N(Cc1ccccc1)C(=O)c1ccccc1S2 | -0.08
Cc1cc(NS(=O)(=O)c2ccc(NC(=O)COc3cc(C)c(Br)cc3C(C)C)cc2)no1 | 0.17
COc1ccc(CNC(=O)c2ccc3c(c2)N(Cc2ccccc2)C(=O)c2ccccc2S3(=O)=O)cc1 | 0.65
O=C(CC(=O)Nc1ccccc1F)Nc1ccc2nc3n(c(=O)c2c1)CCCCC3 | 0.76
COc1ccc(Nc2cc(C(=O)NCc3ccccc3)c3ccccc3n2)c(OC)c1 | 2.08
COc1ccc(C)cc1NC(=O)c1cnc2ccc(C)cn2c1=O | 0.19
CCOC(=O)c1c(NC(=O)c2cc(=O)c3cc(C)ccc3o2)sc2c1CCCC2 | -2.15
CCc1ccc(C2CC(=O)c3c([nH]c(C(=O)OC4CCC(C)CC4)c3C)C2)cc1 (stereo unspecified) | 0.16
COc1ccc(N2CCN(C(=O)C3CCCN(S(=O)(=O)c4ccc5c(c4)oc(=O)n5C)C3)CC2)cc1 (stereo unspecified) | -1.34
C[C@]12CCC3c4ccc(O)cc4CCC3C1CC[C@@H]2OC(=O)CCC1CCCC1 (stereo partly specified) | -1.91
Cc1ccccc1-c1cc2nccc(-c3cc(Cl)ccc3O)n2n1 | -0.9
CC(NS(=O)(=O)c1ccc2c(c1)CCN2C(=O)CCCC(=O)O)c1ccccc1 (stereo unspecified) | -1.19
CCOC(=O)c1c(-c2ccccc2)csc1NC(=O)c1cc(-c2ccc(F)cc2)on1 | -1.28
CC12CCC3c4ccc(OC(=O)c5ccccc5)cc4CCC3C1CCC2O (stereo unspecified) | 0.26
CCc1nnc(CNC(=O)C2CCN(C(=O)C3CCCO3)CC2)s1 (stereo unspecified) | -2.79
CCOc1ccc(OCC)c(NC(=O)Cn2ncc3c4ccccc4n(Cc4ccccc4)c3c2=O)c1 | -1.84
CN(c1ncnc2onc(-c3cccc(Cl)c3)c12)C1CCCCC1 | -1.78
COC(=O)c1ccccc1NC(=O)CCc1c(C)nc2c(c(C)nn2-c2ccccc2)c1C | 0.99
Cn1c(=O)c2c(nc(SCC(=O)Nc3ccc(F)cc3)n2Cc2ccccc2)n(C)c1=O | -1.14
CCC(=O)N1CCc2cc(Br)cc(S(=O)(=O)CCC(=O)NCc3ccccc3OC)c21 | -0.86
CCOC(=O)CN1C(C(=O)c2ccccc2)=C(OC(=O)c2ccccc2)c2ccccc2S1(=O)=O | 2.11
OCC#Cc1csc(CN2CCN(c3ncnc4ccccc34)CC2)c1 | -3.33
COc1ccc(NC(=O)C2CCN(S(=O)(=O)c3c(C)noc3/C=C/c3cccs3)CC2)cc1 | -1.74
Cc1c(CNC(C)CCc2ccccc2)c(C(=O)O)c(C)n1Cc1ccc(F)cc1Cl (stereo unspecified) | -2.5
CCc1ccc(NC(=O)c2sc3nc(C)c(C(=O)Nc4ccc(C)cc4C)c(-c4ccco4)c3c2N)cc1 | -7.7
Cc1ccc(C)c(N2CCN(c3nc4ccccc4c4nc(CCn5nc(C)cc5C)nn34)CC2)c1 | -0.05
Cc1c(NC(=O)c2cc3ccccc3o2)cccc1-c1nc2ccccc2o1 | 1.94
CCCC1=Nc2cc(C(=O)NCCc3ccc(OCC)cc3)ccc2Sc2ccccc21 | 0.69
Cn1c(SCC(=O)c2ccc(F)cc2)nnc1-c1ccccc1Br | -1.86

Some of the entries so far, tab-delimited.
mol	fixLJ activator
CCc1nnc(CNC(=O)C2CCN(C(=O)C3CCCO3)CC2)s1 (stereo unspecified)	-2.79
CCOc1ccc(OCC)c(NC(=O)Cn2ncc3c4ccccc4n(Cc4ccccc4)c3c2=O)c1	-1.84
CN(c1ncnc2onc(-c3cccc(Cl)c3)c12)C1CCCCC1	-1.78
COC(=O)c1ccccc1NC(=O)CCc1c(C)nc2c(c(C)nn2-c2ccccc2)c1C	0.99
Cn1c(=O)c2c(nc(SCC(=O)Nc3ccc(F)cc3)n2Cc2ccccc2)n(C)c1=O	-1.14
CCC(=O)N1CCc2cc(Br)cc(S(=O)(=O)CCC(=O)NCc3ccccc3OC)c21	-0.86
CCOC(=O)CN1C(C(=O)c2ccccc2)=C(OC(=O)c2ccccc2)c2ccccc2S1(=O)=O	2.11
OCC#Cc1csc(CN2CCN(c3ncnc4ccccc34)CC2)c1	-3.33
COc1ccc(NC(=O)C2CCN(S(=O)(=O)c3c(C)noc3/C=C/c3cccs3)CC2)cc1	-1.74
Cc1c(CNC(C)CCc2ccccc2)c(C(=O)O)c(C)n1Cc1ccc(F)cc1Cl (stereo unspecified)	-2.5
CCc1ccc(NC(=O)c2sc3nc(C)c(C(=O)Nc4ccc(C)cc4C)c(-c4ccco4)c3c2N)cc1	-7.7
Cc1ccc(C)c(N2CCN(c3nc4ccccc4c4nc(CCn5nc(C)cc5C)nn34)CC2)c1	-0.05
Cc1c(NC(=O)c2cc3ccccc3o2)cccc1-c1nc2ccccc2o1	1.94
CCCC1=Nc2cc(C(=O)NCCc3ccc(OCC)cc3)ccc2Sc2ccccc21	0.69
Cn1c(SCC(=O)c2ccc(F)cc2)nnc1-c1ccccc1Br	-1.86

Other records follow:
SMILES | fixLJ activator
COc1ccc(C)cc1NC(=O)C1CCN(S(=O)(=O)c2cc(Br)cc3c2N(C(C)=O)CC3)CC1 | -1.96
COc1cc(-n2cnnn2)ccc1NC(=O)CC1NC(=O)c2ccccc21 (stereo unspecified) | 0.58
CCn1c(C(=O)NCCc2ccc(S(N)(=O)=O)cc2)cc2sc(Cl)cc21 | -1.01
Cc1ccc2c(NC(=O)N3CCCC(c4ccn[nH]4)C3)cccc2n1 (stereo unspecified) | 0.04
COc1cc(C2CC(=O)Nc3c2c(=O)n(C)c2ncnn32)cc(OC)c1OC (stereo unspecified) | 1.17
COCCN(C)CC(=O)N1CC(O)C(Cc2ccnc3ccccc23)C1 (stereo unspecified) | 0.01
Cn1c(=O)c2c(nc(SCC(=O)Nc3ccccc3)n2Cc2ccccc2F)n(C)c1=O | -5.56
CC1CCN(S(=O)(=O)c2ccc3c(c2)N(CC(=O)NCc2ccccc2Cl)C(=O)CO3)CC1 | -1.62
O=C(NCc1nc(-c2ccccc2)cs1)c1nc(=O)[nH]c2ccccc12 | 0.75
O=C(Nc1cc(-c2nc3ccccc3o2)ccc1Cl)c1ccc(Br)o1 | -0.44
CN1CCCC1C(=O)N1CCC2(CC1)c1nc[nH]c1CCN2C(=O)C1CC1 (stereo unspecified) | -1.02
Cc1nn(-c2ccccc2)c2sc(C(=O)Nc3cccc(Br)c3)cc12 | 0.5
Cc1ccccc1OCc1nc2c3cnn(-c4cccc(F)c4)c3ncn2n1 | 0.37
CC1=C(C(=O)Nc2ccccc2)C(c2ccncc2)n2nc(SCc3ccccc3F)nc2N1 (stereo unspecified) | 0.52
O=c1c2cc3c(cc2nc2sc(Nc4ccccc4)nn12)OCO3 | -1.06
COc1ccc(NC(=O)CCc2c(C)nc3c(c2C)c(=O)n(C)c(=O)n3C)cc1OC | 0.11
CC1CCN(CCCNC(=O)N2CCN(c3ccncc3)CC2)CC1 | -0.33
CCCSCC(=O)N1CCC2(CC1)c1nc[nH]c1CCN2CC=C(C)C | -1.13
CCSC(C)C(=O)N1CCc2c(nc(-c3ccncc3)nc2N(C)C)C1 (stereo unspecified) | -1.6
CCn1cnnc1CCNc1cc(-c2ccccc2F)nc2ccnn12 | -3.48
Cc1ccc2nc(-c3ccsc3)c(Nc3ccc(Cl)cc3)n2c1 | -3.38
Cc1nc2nc(NC(=O)c3ccccc3F)[nH]n2c(=O)c1Cl | -1.36
Cc1cccc2nc(-c3cccc(NS(=O)(=O)c4ccccc4)c3)cn12 | -3.71
CN1CCC[C@]2(C(=O)O)CCN(C(=O)c3ccc(CCN)cc3)C[C@H]12 | 0.65
Cc1cc(C)n(-c2nc3cc(Cl)ccc3nc2Nc2ccc(CC(=O)O)cc2)n1 | 1.31
CCNc1sc(S(C)(=O)=O)nc1S(=O)(=O)c1ccc(C)cc1 | -1.67
CCCOc1c(Cl)cccc1NC(=O)C1CC(=O)N(Cc2ccccn2)C1 (stereo unspecified) | 0.11
NCCS | -2.53
CCC(=O)N1CCC(n2nccc2NC(=O)CCCc2ccccc2)CC1 | -0.02
O=C(NC1(C(=O)O)CCOCC1)c1cn[nH]c1-c1ccccc1 | -0.36
Cn1nc(-c2ccccc2F)c2cc(C(=O)N3CCN(c4ccc(F)cc4)CC3)sc21 | -0.37
CC(=O)N1CCc2c(sc3c2c(=O)n(CCc2ccccc2)c(=O)n3Cc2ccccc2C)C1 | 0.45
COC(=O)c1ccc(NC(=O)CCOc2ccccc2)cc1 | 1.24
Cc1nc2ccccn2c1CC(=O)N1CCCN(S(C)(=O)=O)CC1 | -0.19
CCOc1ccc(S(=O)(=O)N2CCN(c3c(C)cccc3C)CC2)c2ccccc12 | -2.75
COc1ccc(CCNC(=O)C2=C(C)C(=O)OC23CCCCC3)c(OC)c1 | -1.49
CCOc1ccc(-c2nn(-c3ccccc3)cc2C2NC(=O)NC(C)=C2C(=O)OC(C)C)cc1C (stereo unspecified) | -0.41
O=C(NC1CCN(Cc2ccccc2)CC1)c1ccc(Cn2c(=O)c3ccccc3n(Cc3ccccc3)c2=O)cc1 | -1.21
CCc1cc(C(=O)N2CCCC(c3nccn3Cc3cccnc3)C2)on1 (stereo unspecified) | -0.99
CCCN1C(=O)c2ccccc2CC1(C)C(=O)NC1CCCCC1 (stereo unspecified) | -0.39
CN(C)CCOc1ccc(/C(=C(/CCCl)c2ccccc2)c2ccccc2)cc1 | -3.13
Cc1cc(C)n2c(Nc3cccc(C(F)(F)F)c3)c(-c3ccsc3)nc2n1 | 1.04
Cc1cc(NC(=O)c2ccc(Br)o2)cc(-c2nc3ccccc3o2)c1O | 0.26
O=C(c1ccc2c(c1)OCO2)c1cn(Cc2ccc(F)cc2)c2ccccc2c1=O | -1.31
CCC(CO)(CO)NC(=O)c1cc(COc2ccccc2F)[nH]n1 | -0.33
COc1ccc(NC(=O)c2ccc3c(SCC(=O)O)c4c(nc3c2)CCCC4)c(OC)c1 | -0.49
CC1(C(=O)NC2COCC2Cc2ccnc3ccccc23)CC1 (stereo unspecified) | -0.07
CC(C)(C)c1oc(C(N)=O)cc1CN1CC(c2ccccn2)C1 | -1.92
Cc1ccc(/C=C(\C#N)C(=O)Nc2cc(C)ccc2C)cc1 | -0.1
COc1ccc2c(c1)OCC(C(=O)NCCC13CCCN1CCC3)C2 (stereo unspecified) | -0.48
Other compounds follow:
SMILES | fixLJ activator
Cc1ccc2occ(-c3cc(-c4ccc(Cl)cc4)nc4c3COc3ccccc3-4)c(=O)c2c1 | 1.13
Cc1ccc(CCNC(=O)c2ccc3c(=O)n(-c4ccc(C)cc4)c(=O)[nH]c3c2)cc1 | 0.78
COc1ccc(OC(=O)c2nc(SCc3ccccc3F)ncc2Cl)cc1 | 2.46
O=C(Nc1nnc(N2CCCCCC2)s1)Nc1ccccc1C(F)(F)F | -1.23
CCc1cccc(C)c1NC(=O)Cn1ncc2c3ccccc3n(Cc3ccccc3)c2c1=O | -0.32
O=C(c1ccccc1)c1ccc2nc(N3CCN(c4ccccc4)CC3)c3nncn3c2c1 | -0.93
COCCCNC(=O)c1ccc(Cn2c(=O)c3ccccc3n(Cc3ccc(C)cc3)c2=O)cc1 | -0.05
Cc1ccc2nc(-c3ccccn3)c(Nc3ccccc3C)n2c1 | -1.76
COCCCNc1nc2c(-c3ccccc3)nnn2c2ccccc12 | 0.39
O=C(O)CCCC(=O)N1CCc2cc(S(=O)(=O)NCc3ccccc3)ccc21 | 0.07
CCCc1cc(=O)oc2cc(C)c3c(-c4ccccc4)coc3c12 | -1.09
Cc1cc(C)n(-c2ccccc2NC(=O)NCc2nnc3n2CCCC3)n1 | -0.49
Fc1cccc(-c2nnn3c2nc(NC2CCCCC2)c2ccccc23)c1 | -0.35
Cc1nn(C2CCS(=O)(=O)C2)c(C)c1NC(=O)c1ccc(N2CCCCC2)cc1 (stereo unspecified) | -0.62
CCc1cccc(NC(=O)Cn2nc(CC)n3c(cc4cc(C)ccc43)c2=O)c1 | -0.89
Cc1ccc(NC(=O)CN(C)C)c(NC(=O)Cc2ccccc2F)c1 | -1.9
CCOC(=O)c1c(C)n(-c2ccccc2)c2ccc(OC(=O)c3cccc(Cl)c3)cc12 | 0.57
CN(Cc1cnn(-c2ccccc2)c1)C(=O)c1coc(CN2CCOCC2)c1 | 0.63
CCc1ccc(S(=O)(=O)c2cn(Cc3ccccc3F)c3cc(OC)c(OC)cc3c2=O)cc1 | 0.27
Cn1nc(-c2ccc(C(=O)Nc3ccc(F)cc3)cc2)c2ccccc2c1=O | -2.13
CCOc1ccc2nc(Cl)c(C3CC(c4ccc(C)cc4)=NN3C(=O)CCC(=O)O)cc2c1 (stereo unspecified) | -2.15
CCN(C)CC(=O)N1CCc2nc(NC)nc(C(=O)N3CCCC3)c2C1 | -1.26
O=C(CSc1nc2c(oc3ccccc32)c(=O)[nH]1)Nc1cccc(Cl)c1 | -2.55
CC12NC(Cc3ccccc31)c1ccccc12 (stereo unspecified) | -1.12
CCOc1ccc(C(=O)Nc2ccc(S(=O)(=O)Nc3nc(C)cc(C)n3)cc2)cc1OC | 0.13
CCNc1ccnc(N2CCCC(c3nccn3Cc3ccncc3)C2)n1 (stereo unspecified) | 0.04
COc1cccc(Cn2cc(S(=O)(=O)c3ccc(C)cc3)c(=O)c3cc4c(cc32)OCO4)c1 | -0.89
CSc1cccc(NC(=O)Cn2ncn3c(cc4ccccc43)c2=O)c1 | -2.73
O=C(NCC(c1cccnc1)N1CCOCC1)c1ccc2c(c1)CCCC2 (stereo unspecified) | -0.86
COc1ccc(-c2c(C)nn3c(N4CCN(c5ccccc5)CC4)cc(C)nc23)cc1OC | -0.98
COc1ccc(C(C)NC(=O)N2CCN(CC(=O)N3CCCC3)CC2)cc1 (stereo unspecified) | 0.44
CC(=O)NCCC(=O)NCc1cccnc1N(C)Cc1ccccc1 | 0.04
CC1CCN(c2nc3ccc(C(=O)NCc4ccc(Cl)cc4)cc3s2)CC1 | 1.21
COCCC1CCCCN1C(=O)c1ccc(-n2cnnc2)cc1 (stereo unspecified) | 0.57
COc1ccc(NC(=O)Cn2c(=O)n(-c3ccccc3)c(=O)c3ccc(C(=O)NCc4ccc5c(c4)OCO5)cc32)cc1 | 0.62
